# Screening data as filed in PubChem BioAssay.
# Mtb H37Rv: Mycobacterium tuberculosis H37Rv growth inhibition, putative kinase inhibitor library, confirmatory dose response (AID 2842); one-dose inhibition, % at 10 µg/mL; IC90 in µg/mL for titrated hits; 5.2% of 24,000 active; M. tuberculosis H37Rv growth inhibition; higher % means a stronger effect; some inactives read as strong as hits;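 active = confirmed in a dose series; inconclusive = mostly over 85% at the one dose but not retested; inactive = below 85% or not confirmed; about a fifth of its hits are not listed in these tables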;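 also: bacteria incubated one week before Alamar blue readout; 0% = bacteria only wells and 100% = bacteria with high antibiotic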
# Active calls of the source: *; ? = inconclusive. Only part of the results is shown (hit frequency here may not be typical).
SMILES | Mtb H37Rv
Cc1ccccc1NC(=O)CN1N=NC2C(=O)N(c3ccc(Br)cc3)C(=O)C21 (stereo not given) | -17.6%
C=CCn1c(N)c(C(=O)OCCC)c2nc3ccccc3nc21 | 0.7%
O=C(Nc1ccc2c(c1)N(S(=O)(=O)c1cccs1)CCC2)c1ccc([N+](=O)[O-])cc1 | -7.7%
FC(F)(F)c1cccc(-c2nnn3c2nc(NCCc2c[nH]c4ccccc24)c2ccccc23)c1 | -7.6%
O=C(Nc1nc(-c2nc3ccccc3s2)cs1)c1cc2ccccc2oc1=O | 0.9%
Cc1ccc(C)c(NC(=O)CSC2=NS(=O)(=O)c3cc(F)ccc3N2)c1 | -17.0%
CCOC(=O)N1CCc2c(sc(NC(=O)c3ccc(C#N)cc3)c2C(=O)OC)C1 | 1.7%
O=C(Nc1c(C(=O)Nc2ccccc2)oc2ccccc12)c1cc2ccccc2o1 | 1.9%
CCOC(=O)c1nn(-c2ccc(C(C)=O)cc2)c(=NC(C)=O)s1 | -10.1%
Cc1nc2sc(C(c3ccc(Cl)cc3)N3CCOCC3)c(O)n2n1 (stereo not given) | 9.6%
C=CCc1cccc2cc(C(=O)Nc3cccc(C)c3C)c(=O)oc12 | -2.3%
Cc1cc(NC(=O)CCCc2ccccc2)nc2c1c(=O)oc1ccccc12 | 8.5%
CCc1ccc(NC(=O)c2oc3ccccc3c2NC(=O)CC2CCCC2)cc1 | 1.4%
CC1CCc2nc(NC(=O)c3ccc(Cc4ccccc4)cc3)sc2C1 (stereo not given) | 65.0%
CCOc1ccc(C(=O)c2cn(Cc3cccc(F)c3)c3ccc(F)cc3c2=O)cc1 | 1.8%
Cc1cccc(CN2CCN(c3nc4c(c(=O)[nH]c(=O)n4C)n3CCC(C)C)CC2)c1 | 9.3%
CCC(O)c1nc2ccccc2n1CCCOc1c(C)cccc1C (stereo not given) | ?
Fc1cccc(-c2nnn3c2nc(NCc2ccccc2Cl)c2ccccc23)c1 | -1.4%
CCOC(=O)CCC(=O)Nc1c(C(=O)Nc2ccc(F)c(F)c2)oc2ccccc12 | -4.1%
CC1Cc2ccccc2N1Cc1nnc(-c2ccccc2)o1 (stereo not given) | 21.9%
COc1cccc(C(=O)Nc2nnc(CC(C)C)s2)c1 | 2.7%
CCOC(=O)c1nn(-c2ccc(Cl)cc2)c(=O)c2c(NC(=O)/C=C/c3ccc(OC)c(OC)c3)scc12 | 14.1%
Cc1c(C)n2c(SCc3ccc(Cl)cc3Cl)nnc2[nH]c1=O | 6.8%
COc1cccc(C2c3c(oc4ccc(F)cc4c3=O)C(=O)N2c2cc(C)on2)c1OC (stereo not given) | -8.4%
CCOC(=O)c1nn(-c2ccc(OC)cc2)c(=O)c2c(NC(=O)c3cccc(Br)c3)scc12 | -6.8%
Cc1ccc(C)c2[nH]c(=O)c(CCNC(=O)c3ccccc3I)cc12 | 8.2%
O=C(Nc1nnc(-c2ccc(Cl)cc2Cl)s1)c1cccc(F)c1 | 4.0%
CCS(=O)(=O)c1ccc(C(=O)Nc2nc3ccc(C)cc3s2)cc1 | -5.8%
Cc1cc(C)c(-c2csc(NC(=O)c3ccc4c(c3)OCCO4)n2)c(C)c1 | 7.63µg/mL*
CCOC(=O)c1nn(-c2ccc(F)cc2)c(=O)c2c(NC(=O)C34CC5CC(CC(C5)C3)C4)scc12 | -2.6%
CCn1cc(SCC(=O)Nc2ccc(OC)cc2)c2ccccc21 | 6.6%
Cc1cc(NC(=O)CSc2nnc(-c3cccs3)o2)no1 | -7.5%
Fc1cccc(Nc2ncnc3c2cnn3-c2ccc(Cl)cc2)c1 | 6.7%
O=c1oc2ccccc2cc1-c1cc(O)c2c(=O)oc3ccccc3c2c1 | -2.2%
Cn1c(=O)c2c(SCC(=O)Nc3cccc4ccccc34)nc(-c3cccs3)nc2n(C)c1=O | -3.0%
Cc1cc2c(cc1C)NC(CC(=O)Nc1ccc(O)cc1)C(=O)N2 (stereo not given) | 2.4%
COc1ccccc1NC(=O)C1=C(C)NC(=O)NC1c1ccc(C)cc1 (stereo not given) | 5.5%
Cc1cc(=Nc2ccccc2)n2ccsc2n1 | 3.4%
Cn1c(=O)c2c(SCC(=O)Nc3ccccc3C(F)(F)F)nc(-c3ccc([N+](=O)[O-])cc3)nc2n(C)c1=O | -0.7%
Cc1ccc(C(=O)Nc2ccc(S(=O)(=O)Nc3nccs3)cc2)cc1Br | 7.9%
O=C(Nc1nnc(-c2ccc3c(c2)CCCC3)o1)c1ccno1 | -6.2%
C=CCn1c(N2CCN(Cc3c(F)cccc3Cl)CC2)nc2c1c(=O)[nH]c(=O)n2C | 8.7%
Cc1ccc(SC(C)C(=O)Nc2nnc(-c3cccc([N+](=O)[O-])c3)s2)cc1 (stereo not given) | 8.3%
Cn1ncc2c(NCCO)nc(Nc3ccc(Br)cc3)nc21 | 14.1%
COc1ccc2cc(CCNC(=S)Nc3ccc(C(F)(F)F)cc3)c(=O)[nH]c2c1 | 2.1%
COc1cc(C(=O)Nc2sc3c(c2C#N)CCN(Cc2ccccc2)C3)cc(OC)c1OC | -15.2%
CCC(=O)N1CCN(c2ccc(N3CCOCC3)nn2)CC1 | -1.1%
Cc1ccccc1C(=O)Nc1nc2ccc(S(C)(=O)=O)cc2s1 | 13.1%
COc1ccc(C(=O)N(CCCn2ccnc2)c2nc3c(C)ccc(C)c3s2)cc1OC | 17µg/mL*
CC1CCc2c(sc(Nc3nc4cc5c(cc4s3)OCO5)c2-c2nc3ccccc3s2)C1 (stereo not given) | 18.6%

# Further compounds follow.
SMILES | Mtb H37Rv
Cc1cccc(NC(=O)c2cnc3n(c2=O)CCS3)c1C | -1.0%
CN1CCN(Nc2ncnc(N)c2[N+](=O)[O-])CC1 | -6.2%
Cc1cc(NC(c2cccc([N+](=O)[O-])c2)c2ccc3cccnc3c2O)no1 (stereo not given) | 13.0%
O=C(Nc1n[nH]c(=S)s1)C1CC1 | 0.2%
COc1ccc(-n2ccnc(SCc3ccc(F)cc3)c2=O)cc1 | 2.5%
CCOc1ccc(-n2c(=O)[nH]c3c(C(N)=O)nc(-c4ccccc4C)nc32)cc1 | -4.6%
O=C(COc1ccc2c3c(c(=O)oc2c1)CCCC3)NCc1ccccc1 | -1.1%
Cc1c(C(=O)OCCc2ccccc2)sc2nc[nH]c(=O)c12 | 2.5%
COc1ccc(/C=N/NC(=O)Cn2ccnc2C)cc1OC | -5.9%
O=C(c1cccs1)N1N=C(c2cccs2)CC1c1ccco1 (stereo not given) | -0.8%
CCOc1cc(C(=O)Nc2sc3c(c2C(N)=O)CCN(Cc2ccccc2)C3)cc(OCC)c1OCC | 4.9%
Cn1c(=O)c2c(nc(N=Nc3c(O)[nH]c4ccccc34)n2CCc2ccccc2)n(C)c1=O | -2.2%
CCOC(=O)c1oc2ccccc2c1NC(=O)COc1ccc(C)cc1 | 2.6%
CN(C)c1ccc(C(=O)Nc2nnc(C3=COCCO3)o2)cc1 | 9.01µg/mL*
O=C(CN1CCOCC1)Nc1ccccc1-c1nc2ccccc2[nH]c1=O | 4.2%
O=C(CSC1=Nc2cccnc2Nc2ccccc21)Nc1ccc(F)cc1F | 7.4%
CCOC(=O)c1oc2ccccc2c1NC(=O)c1ccc(S(=O)(=O)N2CCOCC2)cc1 | 11.1%
CCN1CCN(C(=O)c2cc3cc([N+](=O)[O-])ccc3oc2=O)CC1 | -7.5%
Cc1cc2cc(CNC(=O)Nc3ccc(Cl)cc3)ccc2n1C | 2.5%
Cn1c(Cn2c(=O)sc3ccccc32)nnc1SCC(=O)Nc1ccc2c(c1)OCO2 | -4.6%
CCc1cccc(NC(=O)CSc2nnc(-c3ccncc3)n2N)c1 | 1.4%
COC(=O)c1ccc(Cl)cc1NC(=O)c1cc2ccccc2oc1=O | -6.8%
Cc1nnc(NC(=O)CSc2ccc(-c3ccc(-n4ccnc4)cc3)nn2)s1 | 10.1%
Cc1ccc(Cn2c(SCCN3CCCCC3)nc3c2c(=O)[nH]c(=O)n3C)cc1 | -0.2%
COc1ccc(Cl)c2sc(N(Cc3cccnc3)C(=O)Cc3ccccc3)nc12 | 13.3%
O=C(NCc1ccccc1)c1ccc(=O)[nH]n1 | -3.3%
COc1ccc(Cl)cc1NC(=O)CSc1nc2c(c(=O)n1C)SC(C)C2 (stereo not given) | 21.9%
CCOc1ccccc1NC(=O)CC1Sc2ccc(C(F)(F)F)cc2NC1=O (stereo not given) | 10.2%
O=C1NC(=Nc2ccc(O)cc2)S/C1=C\c1ccccc1F | 1.9%
O=C(Nc1nccs1)c1cn(-c2ccccc2)nc1-c1ccc(Cl)cc1 | 72.5%
Cc1ccc(NCC(=O)Nc2ncc(Cc3ccccc3F)s2)cc1C | 51.0%
O=C(O)CCN1C(=O)C2C3CC(C2C1=O)C1C(c2ccc(Cl)cc2)c2sc(=O)[nH]c2SC31 (stereo not given) | -14.4%
CC(C)CCSc1nc2c(c(=O)[nH]c(=O)n2C)n1CC(O)COc1ccc(Cl)cc1 (stereo not given) | 21.4%
CC(C)CC(=O)Nc1c(C(=O)Nc2ccc(F)cc2)oc2ccccc12 | -3.0%
COc1ccc(NC(=O)CSc2nnc(C)c(=O)n2N)c(OC)c1 | -14.0%
Cn1c(=O)c2c(SCC(=O)Nc3ccc(F)cc3)nc(-c3ccc(F)cc3)nc2n(C)c1=O | -8.0%
Fc1cccc2sc(Nc3nc(-c4cccnc4)cs3)nc12 | 6.7%
O=C(CSc1ccnc(=O)[nH]1)Nc1cccc(F)c1 | -7.9%
Cc1ccc(-n2nc3c(c2NC(=O)c2ccccc2Br)CS(=O)C3)cc1 (stereo not given) | 4.5%
COc1ccc(Cl)cc1C(=O)Nc1c(C(=O)Nc2ccc3c(c2)OCO3)oc2ccccc12 | -2.4%
Cc1c(C(=O)NCCc2cc3c(C)ccc(C)c3[nH]c2=O)cccc1[N+](=O)[O-] | -4.0%
CCOCCCNc1c(CC)c(C)c(C#N)c2nc3ccccc3n12 | 23.4%
COc1cc2ccccc2cc1C(=O)Nc1ccc2nc(C)sc2c1 | 8.6%
COc1ccc(C(=O)Nc2ccc3c(c2)C(=O)NC3=O)c(OC)c1 | -11.0%
O=S(=O)(Nc1cccc(-c2ccc(N3CCOCC3)nn2)c1)c1ccc2ccccc2c1 | 7.5%
Nn1c(SCc2ccc(F)cc2)nncc1=O | 2.4%
Nc1c(C(=O)Nc2ccccc2C(F)(F)F)sc2[nH]c(=O)c(C(=O)O)cc12 | -0.6%
CCOC(=O)c1nn(-c2ccc(Cl)cc2)c(=O)c2c(NC(=O)Cc3ccccc3)scc12 | -0.1%
N#C/C(=N\Nc1cccc(C(F)(F)F)c1)c1nc(-c2ccc(Cl)c(Cl)c2)cs1 | 3.4%
O=C(CSc1nc2ccccc2[nH]1)c1cccs1 | 4.7%

# (more compounds)
SMILES | Mtb H37Rv
COc1ccccc1NC(=O)CSc1nc(N)c(NC(=O)c2ccc(Br)o2)c(=O)[nH]1 | -9.4%
CCS(=O)(=O)c1ccc(C(=O)N=c2sc3cc(C)cc(C)c3n2C)cc1 | 9.3%
CCOC(=O)c1nn(-c2ccc(Cl)cc2)c(=O)c2c(NC(=O)c3cc(OC)cc(OC)c3)scc12 | 12.8%
Cc1ccc(-n2ncc3c(NNC(=O)C4CCCCC4)ncnc32)cc1Cl | -9.1%
Cc1cc(NC(=O)c2cc([N+](=O)[O-])ccc2Cl)nc2c1c(=O)oc1ccccc12 | -10.0%
Cn1c(=O)[nH]c(=O)c2c1nc(N1CCN(c3cccc(Cl)c3)CC1)n2CCSc1nc2ccccc2o1 | 4.2%
CCOC(=O)c1nn(-c2ccc(OC)cc2)c(=O)c2c(NC(=O)Cc3cccs3)scc12 | 7.8%
CCOc1ccc(-c2nc3c(c(SCC(N)=O)n2)Cc2cccc(C)c2O3)cc1 | -9.2%
O=C(Oc1coc(CSc2ncccn2)cc1=O)C1CC(=O)N(c2ccc(Cl)cc2)C1 (stereo not given) | -12.7%
COc1cc2c(=O)c(C(=O)c3ccc(Cl)cc3)cn(Cc3cccc(F)c3)c2cc1OC | -11.8%
Cc1nc2c(ccc3nc(NC(=O)COc4ccccc4)sc32)s1 | -5.1%
COc1ccc2oc(=Nc3ccc(O)cc3)c(C(N)=O)cc2c1 | -4.1%
Cc1cnc(=O)[nH]c1SCC(=O)N1CCc2ccccc21 | -1.1%
COc1ccc(NC(=O)C(=O)NCC2COC3(CCCC3)O2)cc1 (stereo not given) | 10.6%
CCOc1ccc(C(=O)NCCc2cc3cc(C)c(C)cc3[nH]c2=O)cc1OCC | -2.7%
CCOc1ccc(C(=O)Nc2sc3c(c2C(N)=O)CCN(Cc2ccccc2)C3)cc1 | -6.3%
Cc1cc(C)cc(NC(=O)c2ccc(S(=O)(=O)N(C)Cc3ccccc3)cc2)c1 | -3.9%
Cc1cc2cc(CCNC(=O)c3ccccc3F)c(=O)[nH]c2cc1C | 3.6%
CC(Nc1nc2c(c(=O)[nH]c(=O)n2C)n1Cc1ccccc1Cl)c1ccccc1 (stereo not given) | 8.2%
CCn1c(SCC(=O)Nc2ccc(Cl)c(Cl)c2)nc2c(c1=O)SC(C)C2 (stereo not given) | 4.4%
CCOC(=O)c1oc2ccccc2c1NC(=O)c1cc(Cl)ccc1OC | 3.5%
O=C1c2ccccc2C(=O)c2cc(S(=O)(=O)Nc3ccc(Br)cc3)ccc21 | 11.0%

# Molecules above that have a cyano group:
SMILES | Mtb H37Rv
CCOC(=O)N1CCc2c(sc(NC(=O)c3ccc(C#N)cc3)c2C(=O)OC)C1 | 1.7%
COc1cc(C(=O)Nc2sc3c(c2C#N)CCN(Cc2ccccc2)C3)cc(OC)c1OC | -15.2%
CCOCCCNc1c(CC)c(C)c(C#N)c2nc3ccccc3n12 | 23.4%
N#C/C(=N\Nc1cccc(C(F)(F)F)c1)c1nc(-c2ccc(Cl)c(Cl)c2)cs1 | 3.4%
